# Bioassay records as filed in PubChem BioAssay.
# DNA Pol III inh – blocks replication by bacterial DNA polymerase III holoenzyme | reconstituted DNA polymerase III holoenzyme replication, biochemical | Potency, µM (titrated, usually from 57.1 µM), for inactives: top-dose activity change, negative = inhibition | actives 0.25% (n = 71,000) | AID 603; also: potency is read from the fitted curve at half-maximal effect; % is scaled to controls: 0 for no effect and ±100 for the full control effect
#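 Reconstituted *E. coli* holoenzyme (0.35 nM Pol III, 1 nM beta, 154 nM SSB, 2 nM primase) was preincubated with compound for 15 min at RT. Synthesis on 1.4 nM ssM13Gori ran 35 min, then was stopped with PicoGreen/EDTA and read as dsDNA fluorescence.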
# ERK AVP block – inhibitors of vasopressin-stimulated ERK signaling pathway. Potency, µM (titrated, usually from 57.5 µM), inactives show top-dose activity, negative = inhibition, actives largely listed as inhibitors. HEK293-V1b, vasopressin-stimulated pERK AlphaScreen. actives 0.99% (n = 72,000); also: potency is read from the fitted curve at half-maximal effect; % is scaled to controls: 0 for no effect and ±100 for the full control effect; nearly all actives have a fitted effect of over 55% in size
#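 Overnight-seeded V1b-HEK293 cells in 1% FBS got compound, then vasopressin (25 nM final, 5 min, 37C), then lysis buffer. AlphaScreen detection of phospho-ERK; activity normalized to basal and full-stimulation controls.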
# ALOX15 inhib – blocks human 15-lipoxygenase activity; P16050; purified 15hLO-1, xylenol orange hydroperoxide absorbance; Potency, µM (top dose mostly 57.1 µM), inactives show at the top dose activity change, negative = inhibition, most hits filed as inhibitors; actives 1.4% (n = 74,000); AID 887; also: potency is read from the fitted curve at half-maximal effect; % is scaled to controls: 0 for no effect and ±100 for the full control effect; nearly all actives have a fitted effect of over 55% in size
#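 Purified human 15hLO-1 (40 nM) in 25 mM Hepes pH 7.5, 0.01% Triton X-100, preincubated 15 min RT with compound, then 50 uM arachidonic acid for 6 min. Hydroperoxide read by ferrous/xylenol orange, 30 min; 573/405 nm absorbance ratio gave progress.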
# FLuc inh – blocks Photinus pyralis firefly luciferase activity | P08659 | purified firefly luciferase, luminescence, 8 min | Potency, µM (series often up to 57.1 µM), without a hit: at the highest dose activity change, negative = inhibition, usual class: inhibitors | actives 2.2% (n = 72,000) | AID 411; also: potency is read from the fitted curve at half-maximal effect; % is scaled to controls: 0 for no effect and ±100 for the full control effect; nearly all actives have a fitted effect of over 40% in size
#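 Substrate buffer containing 10 uM ATP (pH 7.2 imidazole, Mg2+, KCl, detergent, BSA) is dispensed, compound pinned in, then luciferase/luciferin detector mix added. After 8 min at ambient temperature, light output is measured.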
# GFP derepression – epigenetic modulators derepressing GFP locus in mouse cells; AID 597; actives 0.09% (n = 68,000); mouse C127i GFP locus derepression, cytometry, 30 h; Potency, µM (series often up to 46.1 µM), for inactives: top-dose GFP derepression (activation); also: % of control where 0% means no effect
#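 Derepression screen: silenced CMV-GFP reporter in murine C127i cells, 30 h compound incubation at 37 C, washed cells imaged by laser-scanning cytometer to enumerate GFP-expressing objects of 20 to 120 um.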
# Ub-GFP proteasome – ubiquitin-GFP accumulation via proteasome inhibition. Ubiquitin-GFP reporter cells, proteasome inhibition, GFP fluorescence; response scale: untreated = 0%, 10 µM MG-132 = 100%. 67,000 tested, under 10 active. Potency, µM (top dose mostly 45.9 µM), inactives show at the highest dose activation (GFP accumulation), hits mostly activators; active = well fitted activation curve with a large enough effect, not every such curve was filed as active; inconclusive = small, poorly fitted or top-dose-only effect, or another doubt; inactive = no such curve, though single readings can be large or run the other way; also: potency is read from the fitted curve at half-maximal effect
#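 Proteasome blockade was scored as a rise in GFP-expressing U2OS cells carrying a ubiquitin(G76V)-GFP construct, imaged after 4 hr compound treatment at 37 °C across a 46 uM–2.9 nM series.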
# HBB splicing – hemoglobin beta splicing modulation; actives 0.06% (n = 65,000); HBB splicing reporter cell assay, activation; EGFP reporter with mutant IVS2-654 intron; response scale: normalised to 500 nM splice-correcting PNA; Potency, µM (titrated, usually from 46.1 µM), for the others: top-dose activation, actives largely listed as activators; AID 925; also: potency is read from the fitted curve at half-maximal effect; 0% is about no effect
#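 HeLa cells stably expressing EGFP interrupted by mutant beta-globin intron 2 (IVS2-654), 500/well in 2% FCS. Treated with compound for 2 days at 37C. Splicing correction scored as total well GFP intensity (488 nm excitation, 500-520 nm emission); 500 nM antisense PNA served as control.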
# HADH2 inh – HADH2 (human) dehydrogenase inhibition; actives 3.4% (n = 73,000); Potency, µM (titrated, usually from 57.1 µM), for the others: top-dose activity change, negative = inhibition, hits mostly inhibitors; Q99714; recombinant HADH2, NADH fluorescence, beta-hydroxybutyryl-CoA; also: potency is read from the fitted curve at half-maximal effect; % is scaled to controls: 0 for no effect and ±100 for the full control effect; nearly all actives have a fitted effect of over 60% in size; many of its hits are not listed in these tables
# Target sequence (Q99714 whole entry, looked up, one chain of several): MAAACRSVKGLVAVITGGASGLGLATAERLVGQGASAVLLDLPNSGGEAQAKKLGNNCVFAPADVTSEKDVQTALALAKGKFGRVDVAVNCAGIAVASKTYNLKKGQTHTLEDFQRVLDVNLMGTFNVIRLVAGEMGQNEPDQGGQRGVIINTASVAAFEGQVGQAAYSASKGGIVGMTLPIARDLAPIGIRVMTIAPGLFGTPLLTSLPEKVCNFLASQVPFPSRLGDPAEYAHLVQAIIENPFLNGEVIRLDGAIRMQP
#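 Read-out: 360 nm excitation, 450 nm emission, kinetic over 4 min. Conditions: His-tagged human HADH2 20 nM, pH 9.0 Tris with Tween-20, 1 mM NAD+, 90 uM beta-hydroxybutyryl-CoA.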
# Tau fil binding – binders of human tau filaments; AID 596; P10636; recombinant tau filaments, thioflavin S fluorescence, 15 h; filaments grown with octadecylsulfate alongside compound; actives 2% (n = 71,000); Potency, µM (series often up to 57.1 µM), for inactives: top-dose activity change, negative = inhibition;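 also: potency is read from the fitted curve at half-maximal effect; % is scaled to controls: 0 for no effect and ±100 for the full control effect; actives lower thioflavin S fluorescence by blocking filaments or displacing dye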
# Target sequence (P10636 whole entry, looked up): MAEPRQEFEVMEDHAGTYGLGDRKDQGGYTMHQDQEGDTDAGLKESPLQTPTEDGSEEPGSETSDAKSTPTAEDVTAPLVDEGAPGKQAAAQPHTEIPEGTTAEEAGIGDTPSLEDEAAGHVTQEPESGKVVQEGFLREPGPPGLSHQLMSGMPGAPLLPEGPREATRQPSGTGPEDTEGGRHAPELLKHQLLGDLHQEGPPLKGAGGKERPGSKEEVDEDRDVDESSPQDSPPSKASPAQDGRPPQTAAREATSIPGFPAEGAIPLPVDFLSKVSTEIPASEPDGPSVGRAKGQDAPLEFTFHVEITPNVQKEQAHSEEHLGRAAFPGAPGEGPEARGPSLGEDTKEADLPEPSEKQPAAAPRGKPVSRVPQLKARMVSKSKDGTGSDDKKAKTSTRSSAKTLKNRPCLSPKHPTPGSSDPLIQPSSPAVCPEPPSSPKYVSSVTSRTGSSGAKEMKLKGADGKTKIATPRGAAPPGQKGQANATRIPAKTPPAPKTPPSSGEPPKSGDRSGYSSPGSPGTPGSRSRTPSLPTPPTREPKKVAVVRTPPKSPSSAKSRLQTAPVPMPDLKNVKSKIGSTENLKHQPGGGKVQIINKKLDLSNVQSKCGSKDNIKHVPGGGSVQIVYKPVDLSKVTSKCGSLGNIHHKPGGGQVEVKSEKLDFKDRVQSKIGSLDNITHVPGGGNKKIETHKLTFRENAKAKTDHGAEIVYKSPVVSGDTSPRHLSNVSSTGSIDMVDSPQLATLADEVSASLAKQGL
#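 His-tagged recombinant human tau (exons 2, 3 and 10 included), 1 uM, was induced to fibrillize by 30 uM sodium octadecylsulfate with compound present. After 15 h at 37 C, thioflavine S fluorescence (ex 450, em 510 nm) was read.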
# CRE Fsk mod – CRE-bla signaling modulation under forskolin stimulation. CHO CRE-bla reporter (cAMP response element driving beta-lactamase), forskolin EC10, beta-lactamase ratio. Potency, µM (highest dose often 38.2 µM), for the others: top-dose activity change, negative = inhibition, usual class: activators. actives 2.5% (n = 71,000). AID 662; active = well fitted activation curve with a large enough effect in the signal ratio, with a control signal flat, not every such curve was filed as active; inconclusive = small, poorly fitted or top-dose-only effect, or effect the other way, or a change in a side signal; the % refers to the signal ratio; also: potency is read from the fitted curve at half-maximal effect; % of control where 0% means no effect
#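 Modulation of forskolin signalling: compounds in titration series added with EC10 NKH 477 to CHO cells carrying a CRE-driven beta-lactamase reporter, 3 h, 37C. CCF4 FRET ratio (460/530 nm, ex 405 nm) gives %activity and AC50.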
# An asterisk follows results filed as active; ? = inconclusive; nt = no result given; [ ] = another dose, or the depositor's remark. Unless noted, calls follow the shape of the dose curve; as a rule, active = well fitted curve in the direction sought with a large enough effect; inconclusive = small, poorly fitted or top-dose-only effect, or another doubt; inactive = no such curve, though single readings can be large; an effect the other way counts as inactive or inconclusive. Some of the compounds tested; rates above refer to the full screens.
item | SMILES | DNA Pol III inh | ERK AVP block | ALOX15 inhib | FLuc inh | GFP derepression
1 | COc1ccc(-c2nnc(SCC(=O)Nc3cc(C)on3)n2C)cc1OC | -6% | 19% | 3% | -4% | 1%
2 | CCOc1ccc2nc(NC(=O)C3CCN(S(=O)(=O)c4cnc[nH]4)CC3)sc2c1 | -9% | 5% | 3% | -6% | 0%
3 | O=C(NCCSc1ccccc1)c1ccccc1 | -2% | -5% | 6% | ? | -3%
4 | C=CCOC(=O)C(C#N)c1nc2ccccc2nc1N1CCCC1 (configuration not stated) | 4% | -25% | -17% | 1% | -3%
5 | COc1ccc(OCC(=O)Nc2cccc3ncccc23)cc1 | 2% | -28% | -5% | 0% | 4%
6 | COC(=O)c1cn(NC(=O)c2cccc(N(C)C)c2)c(=O)c2ccccc12 | -3% | -10% | -7% | 2% | 2%
7 | CCSC1(SCC)N=C(N)C2(C#N)C(c3ccccc3)NC3=C(CCC3)C12C#N (configuration not stated) | -1% | -30% | 17% | -29% | 0%
8 | O=C(c1ccc2c(=O)n(-c3ccccc3)c(=O)[nH]c2c1)N1CCN(c2ccc(F)cc2)CC1 | 1% | -8% | 2% | -2% | 0%
9 | c1ccc(-c2ccc(-c3ccccn3)nn2)nc1 | -6% | -9% | 34%[activator] | 13µM* | 0%
10 | Fc1ccc(OCc2nc(-c3ccc(Br)o3)no2)c(F)c1 | -12% | -6% | 7.9µM* | -6% | nt
11 | O=C(CCc1ccccc1)Nc1nc2n(n1)C(c1ccccc1)CC(=O)N2 (configuration not stated) | -4% | 0% | 6% | 0% | 0%
12 | COC(=O)c1cn(NC(=O)C2CCCO2)c(=O)c2ccccc12 (configuration not stated) | 1% | 21% | 6% | 2% | 0%
13 | COc1ccc(C(=O)N2CCN=C2SCc2cccnc2)cc1OC | 1% | -11% | 8% | 1% | 14%
14 | CC1(C)[C@@H]2CC[C@]1(CC(=O)O)[C@H](Cl)C2 | -4%[11.4 µM] | 7%[11.5 µM] | 9%[11.4 µM] | 2%[11.4 µM] | 0%[9.22 µM]
15 | Cc1cc(NC(=O)CSc2ccc3nnc(-c4cccc(F)c4)n3n2)no1 | -4% | 4% | -30% | -1% | 1%

item | Ub-GFP proteasome | HBB splicing | HADH2 inh | Tau fil binding | CRE Fsk mod
1 | -3% | 1.6% | 8% | 1% | ?
2 | -15% | -0.6% | 11% | 3% | -2%
3 | 2% | -1.3% | 6% | 3% | -8%
4 | 0% | 4.0% | -21% | 16µM* | ?
5 | 3% | -0.9% | 1% | -11% | 0%
6 | 1% | -1.2% | 12% | 0% | 1%
7 | -4% | -1.8% | 7% | 6% | 22%
8 | -4% | -2.5% | -4% | 5% | 1%
9 | -3% | 0.9%[57.5 µM] | ? | -2% | 4%
10 | 16% | -1.5% | -7% | -13% | -3%
11 | -3% | 3.7%[57.5 µM] | 19% | 1% | -1%
12 | -5% | -2.6% | -7% | 3% | ?
13 | 24% | -0.8% | 7% | 1% | 15%
14 | -2%[9.17 µM] | 1.8%[9.22 µM] | -6%[11.4 µM] | 3%[11.4 µM] | -4%[7.6 µM]
15 | 8% | 3.2% | -28% | 0% | ?

# (next part)
item | SMILES | DNA Pol III inh | ERK AVP block | ALOX15 inhib | FLuc inh | GFP derepression
16 | CCCOc1ccc(C2C(C(=O)c3ccc(C)o3)=C(O)C(=O)N2CCCn2ccnc2)cc1 (configuration not stated) | 6% | 0% | 51%[activator] | 1% | 4%
17 | Cc1csc2ncc(C(=O)NCc3ccc4c(c3)OCO4)c(=O)n12 | -7% | nt | -2% | -2% | nt
18 | O=c1c2[nH]c3ccc(Br)cc3c2ncn1CCCn1ccnc1 | -3% | -2% | 25% | -3% | -2%
19 | COc1ccc2cc(C(c3nnnn3C3CCCC3)N3CCc4ccccc4C3)c(=O)[nH]c2c1 (configuration not stated) | -15% | -24% | -20% | -3% | 7%
20 | Cc1cccc(NS(=O)(=O)c2cc(C(=O)OCC(=O)Nc3cc(C)on3)ccc2C)c1 | 0% | -19% | -2% | -1% | 0%
21 | CN(CCC#N)CC(=O)Nc1ccc(NC(=O)CN(C)CCC#N)cc1 | -6% | 8% | 5% | -6% | 2%
22 | O=C(NCc1ccccn1)C1CCN(S(=O)(=O)N2CCCC2)CC1 | -3% | 30% | 22% | 1% | -1%
23 | O=C(COC(=O)c1ccc[nH]c1=O)NCC1CCCO1 (configuration not stated) | -1% | -13% | 11% | 1% | 2%
24 | O=S1(=O)N=C(Nc2nc3c(s2)CCCC3)c2ccccc21 | -3% | -13% | 0% | 2.5µM* | 2%
25 | Cc1cccc(Nc2nc(N)nc(CN3CCC(C)CC3)n2)c1C | -3% | -4% | 12% | 2% | 5%
26 | CC(C)Sc1nc(N)c2c3c(sc2n1)CN(C)CC3 | 5% | -3% | -27% | 1% | 0%
27 | Nc1nc(CN2CCN(c3ccccc3F)CC2)nc(Nc2ccccc2)n1 | 2% | -29% | 22% | 1% | 0%
28 | Cc1cc(C)n(-c2ccc(F)cc2)c(=O)c1C(=O)O | 4% | -7% | 9% | 1% | -2%
29 | CCOC(=O)c1sc(=S)n2c1[nH]c(=O)c1ccc(C(=O)OC)cc12 | 2% | 15% | 10µM* | 0% | -4%
30 | CCCNC(=O)c1c(N)n(-c2cc(OC)cc(OC)c2)c2nc3ccccc3nc12 | 1% | ? | -9% | 3% | 0%

item | Ub-GFP proteasome | HBB splicing | HADH2 inh | Tau fil binding | CRE Fsk mod
16 | 0% | 0.2% | 7% | 7% | 0%
17 | -1% | -0.3% | -4% | 7% | ?
18 | 10% | -2.6%[1.84 µM] | -5% | 36% | 10µM*
19 | 4% | nt | -2% | ? | ?
20 | -4% | -0.2%[57.5 µM] | 9% | 17% | -14%
21 | 4% | nt | 0% | 0% | -2%
22 | 8% | 0.4% | 10% | -2% | ?
23 | -2% | -2.4% | 8% | 12% | -7%
24 | -1% | 3.5% | -15% | 19% | 0%
25 | -1% | -1.7% | 14% | -1% | 0%
26 | -3% | -0.9% | 4% | 2% | ?
27 | -2% | 2.1%[1.84 µM] | -1% | -6% | ?
28 | 2% | -2.3% | 1% | -15% | ?
29 | -1% | -0.6% | 1µM* | -101% | ?
30 | -4% | -2.1%[57.5 µM] | 238%[activator] | 146% | ?

# Quoted from the results shown (10 entries):
item | SMILES | DNA Pol III inh | ERK AVP block | ALOX15 inhib | FLuc inh | GFP derepression
21 | CN(CCC#N)CC(=O)Nc1ccc(NC(=O)CN(C)CCC#N)cc1 | -6% | 8% | 5% | -6% | 2%
22 | O=C(NCc1ccccn1)C1CCN(S(=O)(=O)N2CCCC2)CC1 | -3% | 30% | 22% | 1% | -1%
23 | O=C(COC(=O)c1ccc[nH]c1=O)NCC1CCCO1 (configuration not stated) | -1% | -13% | 11% | 1% | 2%
24 | O=S1(=O)N=C(Nc2nc3c(s2)CCCC3)c2ccccc21 | -3% | -13% | 0% | 2.5µM* | 2%
25 | Cc1cccc(Nc2nc(N)nc(CN3CCC(C)CC3)n2)c1C | -3% | -4% | 12% | 2% | 5%
26 | CC(C)Sc1nc(N)c2c3c(sc2n1)CN(C)CC3 | 5% | -3% | -27% | 1% | 0%
27 | Nc1nc(CN2CCN(c3ccccc3F)CC2)nc(Nc2ccccc2)n1 | 2% | -29% | 22% | 1% | 0%
28 | Cc1cc(C)n(-c2ccc(F)cc2)c(=O)c1C(=O)O | 4% | -7% | 9% | 1% | -2%
29 | CCOC(=O)c1sc(=S)n2c1[nH]c(=O)c1ccc(C(=O)OC)cc12 | 2% | 15% | 10µM* | 0% | -4%
30 | CCCNC(=O)c1c(N)n(-c2cc(OC)cc(OC)c2)c2nc3ccccc3nc12 | 1% | ? | -9% | 3% | 0%

item | Ub-GFP proteasome | HBB splicing | HADH2 inh | Tau fil binding | CRE Fsk mod
21 | 4% | nt | 0% | 0% | -2%
22 | 8% | 0.4% | 10% | -2% | ?
23 | -2% | -2.4% | 8% | 12% | -7%
24 | -1% | 3.5% | -15% | 19% | 0%
25 | -1% | -1.7% | 14% | -1% | 0%
26 | -3% | -0.9% | 4% | 2% | ?
27 | -2% | 2.1%[1.84 µM] | -1% | -6% | ?
28 | 2% | -2.3% | 1% | -15% | ?
29 | -1% | -0.6% | 1µM* | -101% | ?
30 | -4% | -2.1%[57.5 µM] | 238%[activator] | 146% | ?
